KCNQ2 block: KCNQ2 potassium channel inhibitors, primary screen, cell-based, CHO-K1, FluxOR thallium flux, B-score (AID 2156). Potassium voltage-gated channel subfamily KQT member 2 (Rattus norvegicus), O88943. 20 min; active compounds read low; only compounds with negative scores are shown here; some inactives read as strong as hits. B-score at 10 µM. actives 1.1% (n = 310,000);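 active means fluorescence ratio B-score at most minus 3 library SDs, with starting brightness B-score within 2 library SDs, cut at about -5.5 in these data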
Target sequence (O88943 whole entry, looked up): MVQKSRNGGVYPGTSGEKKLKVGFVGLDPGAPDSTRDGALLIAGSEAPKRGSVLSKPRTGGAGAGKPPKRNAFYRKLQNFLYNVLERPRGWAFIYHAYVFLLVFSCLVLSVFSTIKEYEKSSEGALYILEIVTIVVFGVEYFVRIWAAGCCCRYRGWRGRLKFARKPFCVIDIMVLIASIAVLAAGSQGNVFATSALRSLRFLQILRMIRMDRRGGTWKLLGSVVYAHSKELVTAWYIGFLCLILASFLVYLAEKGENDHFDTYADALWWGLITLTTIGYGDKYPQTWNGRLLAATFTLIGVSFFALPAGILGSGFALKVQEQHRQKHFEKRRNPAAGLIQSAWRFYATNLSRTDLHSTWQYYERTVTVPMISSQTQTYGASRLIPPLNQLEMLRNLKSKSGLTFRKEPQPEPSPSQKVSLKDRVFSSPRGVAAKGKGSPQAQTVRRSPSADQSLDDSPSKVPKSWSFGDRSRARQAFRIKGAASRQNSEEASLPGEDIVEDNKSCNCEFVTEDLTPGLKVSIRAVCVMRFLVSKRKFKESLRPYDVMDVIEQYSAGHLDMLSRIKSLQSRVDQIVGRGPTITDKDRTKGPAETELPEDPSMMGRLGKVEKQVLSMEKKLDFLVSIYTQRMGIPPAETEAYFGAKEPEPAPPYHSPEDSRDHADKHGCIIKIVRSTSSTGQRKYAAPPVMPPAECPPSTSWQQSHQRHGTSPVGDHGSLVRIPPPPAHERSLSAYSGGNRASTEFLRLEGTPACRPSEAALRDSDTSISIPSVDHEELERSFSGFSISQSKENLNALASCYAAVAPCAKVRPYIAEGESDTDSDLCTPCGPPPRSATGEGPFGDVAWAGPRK
KCNQ2 block baseline: recorded beside KCNQ2 block, whose call it bears; B-score; measured here: initial fluorescence intensity artifact check;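 brightness before thallium and not channel activity; 0 = typical well and far values either way flag optical interference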
An asterisk follows results filed as active.

`Cc1ccc(/C=C/C(=O)N2CCN(S(=O)(=O)c3c(C)c(C)cc(C)c3C)CC2)o1` gave KCNQ2 block inactive and KCNQ2 block baseline -1.3.
Cc1c(Br)c([N+](=O)[O-])nn1CC(=O)N1CCCc2ccccc21 was read as KCNQ2 block inactive and KCNQ2 block baseline 0.59.
`CN(C/C=C/C#CC(C)(C)C)Cc1cccc2ccccc12` gave KCNQ2 block inactive and KCNQ2 block baseline -0.38.
For COC(=O)c1[nH]c2ccc(C)cc2c1NC(=O)CN1CCCC(C)(C)C1 the results were KCNQ2 block inactive and KCNQ2 block baseline -0.1.
`O=C(COc1ccc(F)cc1)N(Cc1cccs1)C1CCS(=O)(=O)C1` (stereo not drawn) gave KCNQ2 block inactive and KCNQ2 block baseline 0.55.
`CC(C)(C)NC(=O)CN(Cc1ccco1)C(=O)CCC(=O)Nc1nccs1` gave KCNQ2 block inactive and KCNQ2 block baseline -1.1.
Screening CC(=O)Nc1ccc(S(=O)(=O)N2C(C)CCCC2C)cc1 (stereo not drawn) returned KCNQ2 block inactive and KCNQ2 block baseline -2.5.
For CC1CCc2c(sc(NC(=O)COC(=O)C3CCCO3)c2C#N)C1 (stereo not drawn) the results were KCNQ2 block inactive and KCNQ2 block baseline 0.2.
Screening Cc1ccccc1N1CCN(CC(=O)Nc2nccs2)CC1 returned KCNQ2 block inactive and KCNQ2 block baseline -0.93.
C/C(=N\NC(=O)COc1ccc([N+](=O)[O-])cc1)C(C)(C)C was read as KCNQ2 block inactive and KCNQ2 block baseline -1.5.
CCCCn1c(N)c(Br)c(=O)[nH]c1=O was read as KCNQ2 block inactive and KCNQ2 block baseline -1.5.
For CSc1cccc(NC(=O)c2cnn3ccccc23)c1 the results were KCNQ2 block inactive and KCNQ2 block baseline -0.37.
Screening Cc1c(CCOC(=O)c2ccc(N3CCOCC3)c([N+](=O)[O-])c2)sc[n+]1CC#N returned KCNQ2 block inactive and KCNQ2 block baseline 0.95.
Screening OCC1CCCC(n2cnc3c(=S)nc[nH]c32)O1 (stereo not drawn) returned KCNQ2 block inactive and KCNQ2 block baseline 0.76.
`COc1ccccc1CNc1n[nH]c(NCc2ccccc2OC)n1` gave KCNQ2 block inactive and KCNQ2 block baseline -0.02.
Screening COc1ccc(-n2c(Cc3cccn3C)nnc2SCC(=O)Nc2ccc(Cl)cc2)cc1 returned KCNQ2 block inactive and KCNQ2 block baseline -1.3.
Screening COc1ccc(Nc2oc(-c3ccco3)nc2S(=O)(=O)c2ccc(F)cc2)cc1 returned KCNQ2 block inactive and KCNQ2 block baseline 1.3.
For O=C(NNC(=O)c1ccncc1)Nc1ccc([N+](=O)[O-])cc1 the results were KCNQ2 block inactive and KCNQ2 block baseline -0.87.
`COc1ccc(NC(=O)/C(C#N)=C/c2c(C)nn(-c3ccc(F)cc3)c2Cl)cc1Cl` gave KCNQ2 block inactive and KCNQ2 block baseline 0.42.
CCNC(=O)NC(=O)CSc1ccc2ccccc2c1 was read as KCNQ2 block inactive and KCNQ2 block baseline 1.1.
Screening O=C(Nc1ccccc1[N+](=O)[O-])c1cncc(Br)c1 returned KCNQ2 block inactive and KCNQ2 block baseline 0.02.
`CCn1c(S(=O)(=O)O)nc2ccccc21` gave KCNQ2 block inactive and KCNQ2 block baseline -0.28.
`O=C(Nc1ccc(S(=O)(=O)N2CCCC2)cc1)c1ccc(OCC2CCCO2)cc1` (stereo not drawn) gave KCNQ2 block inactive and KCNQ2 block baseline 1.4.
O=c1c(-c2ccccc2)coc2c(CN3CCCCC3)c(O)ccc12 was read as KCNQ2 block inactive and KCNQ2 block baseline 0.84.
Screening Cc1ccc2oc(C(=O)NCc3ccc4c(c3)OCO4)c(C)c2c1 returned KCNQ2 block inactive and KCNQ2 block baseline 0.73.
Screening O=C(c1snnc1-c1ccccc1)N1CCOCC1 returned KCNQ2 block inactive and KCNQ2 block baseline -0.33.
For CCCC(C)NC(=O)COc1ccc(Sc2ccc(OCC(=O)NC(C)CCC)cc2)cc1 (stereo not drawn) the results were KCNQ2 block inactive and KCNQ2 block baseline 0.41.
For CCCSc1sc(C(=O)OC)c(-c2cccs2)c1C#N the results were KCNQ2 block inactive and KCNQ2 block baseline 0.53.
Screening CCOC(=O)c1ccc(S(=O)(=O)N2CCN(CCC#N)CC2)cc1 returned KCNQ2 block inactive and KCNQ2 block baseline 1.2.
Screening CN(C)C(=O)CSc1nnc(NC(=O)CCc2ccccc2)s1 returned KCNQ2 block inactive and KCNQ2 block baseline -0.02.
For O=C(c1cc(Cl)ccc1[N+](=O)[O-])N1CCc2ccccc2C1 the results were KCNQ2 block inactive and KCNQ2 block baseline 1.1.
Screening CCc1ccc(OCC(=O)N(Cc2ccccc2)C2CCS(=O)(=O)C2)cc1 (stereo not drawn) returned KCNQ2 block inactive and KCNQ2 block baseline -0.75.
Screening COc1ccc(CNC(=O)/C(C#N)=C/c2cccc(OC)c2OC)cc1 returned KCNQ2 block inactive and KCNQ2 block baseline 0.37.
For O=C(CSc1nnc(-c2ccco2)n1Cc1ccccc1)c1ccccc1 the results were KCNQ2 block inactive and KCNQ2 block baseline 1.1.
Screening O=C(O)C1C2C=CC(C2)C1C(=O)NC(c1ccccc1)c1ccccc1 (stereo not drawn) returned KCNQ2 block inactive and KCNQ2 block baseline 0.63.
Screening CS(=O)(=O)N1CCCC(C(=O)NCc2ccc(F)cc2Cl)C1 (stereo not drawn) returned KCNQ2 block inactive and KCNQ2 block baseline -1.7.
COc1ccc(CCNS(=O)(=O)c2ccc(OC)cc2)cc1 was read as KCNQ2 block inactive and KCNQ2 block baseline -1.1.
Screening CCCCC(=O)Nc1nc(C)c(-c2csc(Nc3ccccc3OC)n2)s1 returned KCNQ2 block inactive and KCNQ2 block baseline -0.27.
Screening O=C(Oc1ccc(-c2cnc3ccccc3n2)cc1)c1ccc(Cl)c([N+](=O)[O-])c1 returned KCNQ2 block inactive and KCNQ2 block baseline -0.75.
Screening CCOC(=O)c1c(C)[nH]c(C(=O)OCC(=O)N2c3ccccc3CC2C)c1C (stereo not drawn) returned KCNQ2 block inactive and KCNQ2 block baseline -0.23.

Random excerpt: two compounds from above.
`O=C(COc1ccc(F)cc1)N(Cc1cccs1)C1CCS(=O)(=O)C1` (stereo not drawn) gave KCNQ2 block inactive and KCNQ2 block baseline 0.55.
Screening CC(=O)Nc1ccc(S(=O)(=O)N2C(C)CCCC2C)cc1 (stereo not drawn) returned KCNQ2 block inactive and KCNQ2 block baseline -2.5.

Continued:
O=C1CC(c2ccccc2)Sc2nc3ccccc3n21 (stereo not drawn) was read as KCNQ2 block inactive and KCNQ2 block baseline -3.6.
For COc1cc(Cl)c(S(=O)(=O)NCCCN2CCOCC2)cc1Cl the results were KCNQ2 block inactive and KCNQ2 block baseline 1.3.
Screening CCCCOc1ccc(/C=c2\sc3ncnn3c2=O)cc1 returned KCNQ2 block inactive and KCNQ2 block baseline 0.03.
`C=CCc1c(OC)ccc2c1c(S(=O)(=O)c1ccc(C)cc1)cn2COC` gave KCNQ2 block inactive and KCNQ2 block baseline -0.65.
For Cc1cc2n(n1)C(c1ccsc1)Nc1ccccc1-2 (stereo not drawn) the results were KCNQ2 block inactive and KCNQ2 block baseline 0.12.
Cc1nnc(NCCN2CCOCC2)[nH]c1=O was read as KCNQ2 block inactive and KCNQ2 block baseline 2.3.
For COc1ccc(/C=C(/C#N)C(=O)Nc2cccc(C)c2C)cc1C(=O)O the results were KCNQ2 block inactive and KCNQ2 block baseline 0.18.
Screening Cc1ccc(C)c(NC(=O)CN(C)C(=O)c2ccccc2Cc2ccccc2)c1 returned KCNQ2 block inactive and KCNQ2 block baseline -0.01.
`CCCCCCc1ccc(N2C[C@H](Cc3ccccc3)[C@@H](CC(=O)Nc3ccccc3)C2=O)cc1` gave KCNQ2 block inactive and KCNQ2 block baseline 0.15.
`Cc1c(NC(=O)c2cnn3cccnc23)c(=O)n(-c2ccccc2)n1C` gave KCNQ2 block inactive and KCNQ2 block baseline 0.52.
Cc1cccc(C(=O)Nc2sc(C(=O)N3CCCC3)c(C)c2C#N)c1 was read as KCNQ2 block inactive and KCNQ2 block baseline 0.22.
Screening COc1ccccc1-c1c(C(F)(F)F)oc2cc(OC(=O)c3ccc([N+](=O)[O-])cc3)ccc2c1=O returned KCNQ2 block inactive and KCNQ2 block baseline 1.9.
For COc1ccc(N(C(=O)c2snc(C(N)=O)c2N)C(C(=O)NC2CCCCC2)c2ccc(C)o2)cc1 (stereo not drawn) the results were KCNQ2 block inactive and KCNQ2 block baseline 0.13.
Screening Cc1cccc2c1Sc1ccc(Cl)cc1CC2N1CCNCC1 (stereo not drawn) returned KCNQ2 block -8.4* and KCNQ2 block baseline 0.85*.
CC(C)c1ccc(C(C(=O)NC(C)(C)C)N(C(=O)CNC(=O)c2ccco2)c2cccnc2)cc1 (stereo not drawn) was read as KCNQ2 block inactive and KCNQ2 block baseline 1.8.
Screening COc1cc(Br)c(C(C)NC(=O)c2ccc(C)cc2)cc1OC (stereo not drawn) returned KCNQ2 block inactive and KCNQ2 block baseline 3.
`O=C(N/N=C/c1c(O)n(-c2ccccc2Cl)c(=O)c2ccccc12)c1cccnc1` gave KCNQ2 block inactive and KCNQ2 block baseline 5.1.
`CCN(CC)c1ccc2nc3ccccc3[n+](CC)c2c1` gave KCNQ2 block inactive and KCNQ2 block baseline -3.6.
`COc1ccc(C)cc1NC(=O)c1nn(-c2ccccc2)cc1OC` gave KCNQ2 block inactive and KCNQ2 block baseline 1.8.
For CC1CCN(C(=O)CN(Cc2ccc(F)cc2)S(C)(=O)=O)CC1 the results were KCNQ2 block inactive and KCNQ2 block baseline -1.1.
CCOc1cc(C(=O)N(C)CC(=O)Nc2cccc(F)c2)ccc1OCC(=O)N1CCCCC1 was read as KCNQ2 block inactive and KCNQ2 block baseline -0.71.
Screening CCOc1cccc2cc(C(=O)NC(C)c3ccccc3)c(=N)oc12 (stereo not drawn) returned KCNQ2 block inactive and KCNQ2 block baseline -0.27.
`Cc1ccc(NC(=O)NC(=O)CSc2nnc(-c3ccc(Cl)cc3Cl)n2N)c(C)c1` gave KCNQ2 block inactive and KCNQ2 block baseline 0.37.
For Cc1ccc(OCC(=O)Nc2sc3c(c2C#N)CC(C)(C)NC3(C)C)cc1 the results were KCNQ2 block inactive and KCNQ2 block baseline 0.68.
Cc1nn(CC(=O)NN)c(C)c1Br was read as KCNQ2 block inactive and KCNQ2 block baseline -0.79.
Screening CCC(=O)Nc1ccc(NC(=O)CSc2nnnn2-c2cccnc2)cc1C returned KCNQ2 block inactive and KCNQ2 block baseline 1.6.
O=C(CSc1nc(-c2ccccc2)c(-c2ccccc2)[nH]1)Nc1ccc2c(c1)OCO2 was read as KCNQ2 block inactive and KCNQ2 block baseline 2.
For COc1cc2c(cc1OC)-c1nc3ccccc3c(=O)n1C(C)(C)C2 the results were KCNQ2 block inactive and KCNQ2 block baseline -0.71.
COc1c(/C=C2\SC(=Nc3ccccc3Cl)NC2=O)cccc1[N+](=O)[O-] was read as KCNQ2 block inactive and KCNQ2 block baseline 0.06.
Screening CNc1nc(SCC(=O)Nc2ccccc2)nc(N2CCOCC2)n1 returned KCNQ2 block inactive and KCNQ2 block baseline 0.63.

Gathered by group: those above with an NH in an aromatic ring
For COC(=O)c1[nH]c2ccc(C)cc2c1NC(=O)CN1CCCC(C)(C)C1 the results were KCNQ2 block inactive and KCNQ2 block baseline -0.1.
CCCCn1c(N)c(Br)c(=O)[nH]c1=O was read as KCNQ2 block inactive and KCNQ2 block baseline -1.5.
Screening OCC1CCCC(n2cnc3c(=S)nc[nH]c32)O1 (stereo not drawn) returned KCNQ2 block inactive and KCNQ2 block baseline 0.76.
`COc1ccccc1CNc1n[nH]c(NCc2ccccc2OC)n1` gave KCNQ2 block inactive and KCNQ2 block baseline -0.02.
Screening CCOC(=O)c1c(C)[nH]c(C(=O)OCC(=O)N2c3ccccc3CC2C)c1C (stereo not drawn) returned KCNQ2 block inactive and KCNQ2 block baseline -0.23.
Cc1nnc(NCCN2CCOCC2)[nH]c1=O was read as KCNQ2 block inactive and KCNQ2 block baseline 2.3.
O=C(CSc1nc(-c2ccccc2)c(-c2ccccc2)[nH]1)Nc1ccc2c(c1)OCO2 was read as KCNQ2 block inactive and KCNQ2 block baseline 2.

Following part.
CC(C)c1ccc(/C=C/C(=O)O)cc1 was read as KCNQ2 block inactive and KCNQ2 block baseline -2.4.
Screening O=C(c1ccccc1)N1CCN(C(=O)c2cccnc2)CC1 returned KCNQ2 block inactive and KCNQ2 block baseline 1.7.
`CCn1cnc2sc(-c3ccccc3)cc2c1=O` gave KCNQ2 block inactive and KCNQ2 block baseline 0.96.
Screening Cc1ccc(N(CC(=O)N2CCN(c3ccc(F)cc3)CC2)S(=O)(=O)c2c(C)noc2C)cc1 returned KCNQ2 block inactive and KCNQ2 block baseline -0.53.
For O=C(Nc1cccc(Cl)c1)Nc1ccc(Cl)cn1 the results were KCNQ2 block inactive and KCNQ2 block baseline 0.03.
`CCOC(=O)C1=C(c2ccccc2)NC(=O)NC1c1ccc(OC)cc1` (stereo not drawn) gave KCNQ2 block inactive and KCNQ2 block baseline -2.3.
`Cc1ccc(CNC(=O)C2CCCN(S(=O)(=O)c3c(C)[nH]c(=O)[nH]c3=O)C2)cc1` (stereo not drawn) gave KCNQ2 block inactive and KCNQ2 block baseline 0.23.
For CC(C)(C)C1CCC(OC(=O)C[N+]2(C)CCCC2)CC1 (stereo not drawn) the results were KCNQ2 block inactive and KCNQ2 block baseline 0.34.
Screening O=C(CCCN1C(=O)CCC1=O)Nc1ccc(Br)cc1F returned KCNQ2 block inactive and KCNQ2 block baseline 1.5.
`Cn1c(C(=O)NCCCN2CCN(c3ccccc3F)CC2)cc2c(=O)n(C)c3ccccc3c21` gave KCNQ2 block inactive and KCNQ2 block baseline 1.8.
Screening CSCCC(NC(=O)COc1ccccc1)C(=O)OCC(=O)c1cc2ccccc2o1 (stereo not drawn) returned KCNQ2 block inactive and KCNQ2 block baseline -0.22.

Screening data deposited in PubChem by Johns Hopkins Ion Channel Center.

Only part of the results is shown; the hit share may differ from the screen's.
